# Compound activity (PubChem BioAssay)
# VCAM-1 augmentation: boosters of cytokine-driven VCAM-1 levels – imaging, high-content imaging, pooled HUVEC, TNFa stimulus (AID 457) | Pooled HUVEC, TNFa-induced VCAM-1 immunofluorescence imaging; hits of this screen are not shown here | calls only | 10,000 compounds, 0.2% hits;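 active = a top-ranked rise in VCAM-1 staining upheld on image or statistical review; inactive = the rest, including candidates rejected on review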;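 note: compounds tested at 5 µM in the well; cells exposed to compound for 24 hours before fixing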
# FPRL1 binder: binds the human formylpeptide receptor-like-1 FPRL1; P25090; FPRL1-expressing cells, fluorescent ligand binding inhibition, flow cytometry; inhibition, %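 (tested at 6.7 µM)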; 24,000 compounds, 0.3% hits; AID 441;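 note: 0% = buffer alone and 100% = receptor blocker peptide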
# Target sequence (P25090 whole entry, looked up): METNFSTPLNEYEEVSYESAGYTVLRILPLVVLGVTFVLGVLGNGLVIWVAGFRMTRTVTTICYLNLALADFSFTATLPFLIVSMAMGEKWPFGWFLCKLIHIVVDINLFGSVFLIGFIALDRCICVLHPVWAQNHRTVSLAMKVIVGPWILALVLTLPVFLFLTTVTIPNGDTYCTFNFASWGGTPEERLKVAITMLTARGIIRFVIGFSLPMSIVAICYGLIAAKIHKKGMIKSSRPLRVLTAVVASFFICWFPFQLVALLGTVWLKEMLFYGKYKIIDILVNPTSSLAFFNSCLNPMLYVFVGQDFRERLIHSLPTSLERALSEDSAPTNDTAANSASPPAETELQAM
# VCAM-1 imaging: inhibitors of TNFa-induced VCAM-1 surface display, imaging, high-content imaging, pooled HUVEC, TNFa stimulus (AID 456) | inhibition, % at 5 µM; hits with a dose series show IC50 in µM | 10,000 compounds, 0.2% hits | HUVEC TNFa-induced VCAM-1 surface expression, immunofluorescence imaging; numbers were filed only for top-ranked candidate wells;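 active = top tenth filtered wells with inhibition above zero that passed visual or statistical confirmation; inactive = the rest, including hits rejected on review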;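 note: 0% = stimulated vehicle wells and 100% = unstimulated cells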
# FPR binder: binds the human formylpeptide receptor FPR; P21462; FPR-expressing cells, fluorescent ligand binding, flow cytometry; inhibition, %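 (tested at 6.7 µM)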; 24,000 compounds, 0.74% hits; AID 440;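 note: 0% = buffer wells and 100% = receptor blocker peptide wells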
# Target sequence (P21462 whole entry, looked up): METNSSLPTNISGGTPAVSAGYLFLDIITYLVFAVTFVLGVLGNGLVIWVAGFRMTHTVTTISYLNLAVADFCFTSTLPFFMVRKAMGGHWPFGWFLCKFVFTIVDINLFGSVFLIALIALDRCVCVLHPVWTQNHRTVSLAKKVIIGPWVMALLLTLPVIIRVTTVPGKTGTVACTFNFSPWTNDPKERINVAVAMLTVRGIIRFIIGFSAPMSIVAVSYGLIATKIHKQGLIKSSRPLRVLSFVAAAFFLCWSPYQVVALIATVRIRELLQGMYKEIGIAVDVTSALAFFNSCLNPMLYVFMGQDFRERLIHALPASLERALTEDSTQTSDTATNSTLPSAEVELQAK
# VCAM-1 inhibition: suppression of endothelial VCAM-1 upregulation – cell-based, plate reader, pooled HUVEC, TNFa stimulus (AID 454); HUVEC TNFa-induced VCAM-1 surface immunofluorescence, plate reader; numbers were filed only for top-ranked candidate wells; 10,000 compounds, 0.2% hits; inhibition, % at 5 µM;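 active = compound among top-ranked inhibitors of TNF-induced VCAM-1 adhesion protein staining, with the hit upheld by image or statistical review; inactive = the rest, including hits rejected on review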;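 note: 0% = TNFa with vehicle and 100% = cells without TNFa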
# * hit, by the source's call; i = inactive; . = no result given.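 Rule for the calls, unless noted: active = mean above 30%; inconclusive = self-fluorescent; inactive = the rest.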 This is a subset; count on the stated rates, not on these rows.
SMILES,VCAM-1 augmentation,FPRL1 binder,VCAM-1 imaging,FPR binder,VCAM-1 inhibition
COc1ccccc1-c1cc(C(F)(F)F)nc(S(=O)(=O)CCCC(=O)N2CCCCC2C)n1 (stereo unspecified),.,17,.,0,.
CCOC(=O)N1CCN(C(=O)c2cc3c(=O)n(C)c4ccccc4c3n2C)CC1,.,-3,.,-2,.
Cc1cc2c(c(=O)o1)C(Cc1ccccc1)C(C#N)=C(N)O2 (stereo unspecified),i,-3,i,7,i
O=C(Cn1cc(C(=O)c2cccs2)c2ccccc21)NCc1ccc2c(c1)OCO2,.,-2,.,-11,.
CCN(Cc1ccccc1)S(=O)(=O)c1nc2nc(C)c(C)c(C)n2n1,.,0,.,2,.
CCOc1ccc(N(CC(=O)NC2CCCCCC2)S(=O)(=O)c2c(C)noc2C)cc1,.,-6,.,6,.
Cc1nnc(SCC(=O)N2CCC(C(N)=O)CC2)s1,i,2,i,-8,i
O=C(COC(=O)CCOc1ccccc1)Nc1ccc(Cl)cn1,i,0,i,-5,i
CC(C)[C@H](NC(=O)NC1CCCC1)C(=O)O,i,-5,i,-4,i
COc1cccc(/C=N/n2cncn2)c1OCC#N,.,-3,.,0,.
Cc1ccc2c(c1)N(CC(=O)N1CCCCC1c1cccnc1)C(=O)CO2 (stereo unspecified),i,-4,i,-8,i
COc1cc2c(=O)n(Cc3ccco3)c(=O)n(CC(=O)c3ccc(Br)cc3)c2cc1OC,.,-2,.,-2,.
CCOc1ccc(C2C(C(=O)c3ccc(C)o3)=C(O)C(=O)N2CCCN(CC)CC)cc1 (stereo unspecified),.,-5,.,-4,.
CCOC1OC2C(CO)OC(n3cnc4c(N)ncnc43)C2O1 (stereo unspecified),.,-7,.,2,.
CCCOc1ccc([C@@H]2C3CN(C(=O)OCC)CC=C3C(C#N)=C(N)C2(C#N)C#N)cc1OC (stereo partly specified),i,-10,i,10,i
CCSc1nnc(NC(=O)CSc2nc3c(c(=O)n2C)SC(C)C3)s1 (stereo unspecified),.,-4,.,3,.
CCCS(=O)(=O)c1c(S(=O)(=O)CCC)c2cc(CC)ccn2c1C(=O)OC,.,-6,.,0,.
Cc1c(C(=O)Nc2nnc(C(F)(F)F)s2)oc2ccccc12,i,-10,i,2,i
Cc1ccc(CNC(=O)C2c3ccccc3C(=O)N(C)C2c2c[nH]c3ccccc23)o1 (stereo unspecified),.,0,.,-4,.
O=C(Nc1cccc(C(F)(F)F)c1)C1CCCN(S(=O)(=O)c2cnc[nH]2)C1 (stereo unspecified),.,3,.,-4,.
CC1Cc2ccccc2N1C(=O)c1cnc2ccccn2c1=O (stereo unspecified),.,11,.,-1,.
COCCCNC(=O)c1ccccc1NS(=O)(=O)c1ccc(C)cc1,i,2,i,7,i
COc1ccc(Nc2nc(N3CCCC3)c3ccccc3n2)cc1,.,4,.,6,.
CN(CC(=O)NCc1ccco1)S(=O)(=O)c1ccc2c(c1)n(C)c(=O)c(=O)n2C,.,-8,.,-8,.
CCC(CC)C(=O)Nc1c2cnn(-c3ccccc3)c2nc(=O)n1-c1ccccc1,.,4,.,83*,.
# (more compounds)
SMILES,VCAM-1 augmentation,FPRL1 binder,VCAM-1 imaging,FPR binder,VCAM-1 inhibition
CCOC(=O)N1CCC(NS(=O)(=O)c2ccc3c(c2)C(C)(C)C(=O)N3C)CC1,.,0,.,-3,.
O=C(CCn1c(=S)[nH]c2ccccc2c1=O)NCC1CCCO1 (stereo unspecified),i,3,i,-2,i
COCCn1c(-c2ccco2)nc2nc3ccccc3nc21,i,-2,i,-3,i
CCCn1nc(NS(=O)(=O)c2ccccc2)c2cc3ccccc3nc21,i,-1,i,5,i
COc1ccc(OCc2nnc3n2N=C(c2ccc(Br)cc2)CS3)cc1,.,0,.,12,.
Cc1cccc(Nc2ccccc2C(=O)O)c1C,i,-2,i,-3,i
COC(=O)c1ccccc1NC(=O)CSc1nnc(-c2ccncc2)o1,i,1,i,2,i
CC(=O)Nc1nc(=S)ss1,i,0,i,3,i
O=C(c1n[nH]c2c1CCCC2)n1ccnc1,.,1,.,6,.
COC(=O)c1[nH]c2ccccc2c1NS(=O)(=O)c1ccc(OC)cc1OC,i,-1,i,4,i
Cc1cc(NCc2ccco2)nc2cc(O)ccc12,.,-4,.,-2,.
CC(NS(=O)(=O)c1ccc(OCC(=O)N2CCOCC2)c(Cl)c1)c1ccccc1 (stereo unspecified),i,-4,i,2,i
CC(=O)OC[C@H]1O[C@@H](n2ncc(=O)[nH]c2=O)[C@H](OC(C)=O)[C@@H]1OC(C)=O,i,-1,i,6,i
O=C(NC1CCCCC1)C1CCCN1C(=O)NCc1ccccc1 (stereo unspecified),i,1,i,-3,i
O=C(Cn1c(=O)n(CCC(=O)N2CCc3ccccc3C2)c(=O)c2ccccc21)NCC1CCCO1 (stereo unspecified),.,22,.,-1,.
CNC(=O)c1c(O)c2cccc3c2n(c1=O)CC3,i,-2,i,-1,i
COc1ccc(-c2ccc(-c3noc(-c4ccccc4)n3)c(OC)n2)cc1,i,-5,i,1,i
CCOC(=O)C1CCN(c2c(N3CCN(c4ccccc4OC)CC3)c(=O)c2=O)CC1,.,1,.,1,.
O=c1[nH]c(Nc2ccccc2)cc2ccccc12,i,10,i,-5,i
c1cncc(-c2cccnc2)c1,.,1,.,1,.
CCOC(=O)c1[nH]c2ccccc2c1NC(=O)C(CC)CC,i,-8,i,-3,i
CC1Cc2ccccc2N1C(=O)Cc1cccs1 (stereo unspecified),i,-16,i,-10,i
Cc1nc2sc(C(c3cccc(F)c3)N3CCOCC3)c(O)n2n1 (stereo unspecified),i,4,i,-4,i
COc1ccc2cc(C#N)c(SCC(=O)N3CCCC3)nc2c1,i,-6,i,0,i
COC(=O)c1c[nH]n2c(=O)c(Cc3ccc(F)cc3Cl)c(C)nc12,.,3,.,18,.
# (more compounds)
SMILES,VCAM-1 augmentation,FPRL1 binder,VCAM-1 imaging,FPR binder,VCAM-1 inhibition
COC(=O)Cn1cc(C(=O)c2cccs2)c2ccccc21,i,-2,i,-2,i
CCOC(=O)c1nc(Nc2ccc(C(=O)O)cc2)c2ccccc2n1,.,-3,.,1,.
CCN1CCN(c2ccc(-n3c(C)nc4c(cnn4-c4ccccc4Cl)c3=O)cc2)CC1,.,-8,.,-9,.
CC(C)(C)NC(=O)Cn1c(=O)oc2ccc(Cl)cc21,i,-1,i,-4,i
Cc1ccc(C2CC(c3ccc(Cl)cc3)n3nc(N)nc3N2)cc1 (stereo unspecified),.,-7,.,-2,.
CC1CN(c2ccc(Oc3ccccc3)cc2)c2nc3c(c(=O)n(CC(N)=O)c(=O)n3C)n2C1 (stereo unspecified),i,6,i,-2,i
CCOC(=O)CSC1=Nc2ccccc2C2=NC(CC(=O)NCc3cccs3)C(=O)N12 (stereo unspecified),i,4,i,-2,i
Cc1ccc(NC(=O)CSc2nnc(Cn3c(=O)sc4ccccc43)n2C)cc1Cl,.,-4,.,0,.
COc1ccc2c(c1)C(C)=CC(C)(C)N2C(=O)CSc1nnc(-c2ccc(C)cc2)o1,i,6,i,-8,i
O=C(CCCCCn1c(=S)[nH]c2cc3c(cc2c1=O)OCO3)N1CCN(Cc2ccccc2)CC1,i,-4,i,-1,i
O=C(CNC1CCCCCC1)Nc1ccc(S(=O)(=O)NC2CC2)cc1,i,-2,i,-3,i
Cc1ccccc1OCc1nc(-c2ccc(NC(=O)c3ccco3)cc2)no1,.,-1,.,3,.
O=C1c2ccccc2C(Nc2ccc(S(=O)(=O)N3CCCCC3)cc2)N1c1ccccn1 (stereo unspecified),.,4,.,-1,.
CCN(CC)S(=O)(=O)c1ccc(NC2CCCc3ccccc32)nc1 (stereo unspecified),i,-4,i,2,i
COc1ccc(-c2cc(C(=O)Nc3ccccc3SC)no2)cc1OC,.,-4,.,-2,.
Cn1c(Cn2c(=O)sc3ccccc32)nnc1SCC(=O)N1CCc2ccccc21,.,4,.,2,.
O=C(O)CCC1(C(=O)O)OCCc2ccccc21 (stereo unspecified),i,2,i,1,i
O=C(C1CCN(S(=O)(=O)Cc2ccccc2)CC1)N1CCN(c2ncccn2)CC1,i,6,i,-5,i
O=C(CN1C(=O)C2(OCCO2)c2ccccc21)c1ccc(F)cc1,.,3,.,-2,.
Cc1occc1-c1nc(-c2ccncc2)no1,i,3,i,-3,i
Cc1ccccc1C(=O)NCCN=C1NS(=O)(=O)c2ccccc21,.,-7,.,-11,.
CCCN1CCN(C(=O)Cn2ncc3ccccc32)CC1,.,0,.,9,.
CCOC(=O)N1CCN(C(=O)Cc2ccc(-n3c(=O)[nH]c4ccccc4c3=O)cc2)CC1,.,8,.,-2,.
COc1ccc(CC(=O)Nc2ccc(-c3noc(-c4cccc(OC)c4)n3)cc2)cc1,.,-1,.,2,.
COCCNC(=O)C(c1ccc(C)o1)N(Cc1ccc(OC)cc1)C(=O)Cn1nnc2ccccc21 (stereo unspecified),i,-4,i,9,i
# The results go on:
SMILES,VCAM-1 augmentation,FPRL1 binder,VCAM-1 imaging,FPR binder,VCAM-1 inhibition
COC(=O)c1cccc(Oc2nc3c(c(=O)n(C)c(=O)n3C)n2C(C)C)c1,i,0,i,6,i
COC(=O)CN(c1ccc(OC)cc1)S(=O)(=O)c1c(C)noc1C,.,-4,.,-7,.
CCn1c(COc2cccc3cccnc23)nnc1SCC(=O)O,.,-3,.,-8,.
COc1ccc(-c2cc(C(=O)N3CCOCC3)no2)cc1OC,.,6,.,5,.
CCC(c1nnc(SCC(=O)Nc2ccc(C(=O)Nc3ccccc3OC)cc2)o1)N(C)C (stereo unspecified),i,-2,i,-2,i
COCCn1c(=O)c2c(nc3n2CCN3c2ccc(C)cc2)n(C)c1=O,.,4,.,5,.
CC(C)OCCCNC(=O)c1cc2c(=O)n(C)c3ccccc3c2n1C,.,-4,.,8,.
CC1CCN(C(=O)C(NS(=O)(=O)c2cccc3nsnc23)c2ccccc2)CC1 (stereo unspecified),.,12,.,26,.
O=C(Nc1cnn(Cc2ccc(F)cc2)c1)c1cnccn1,i,0,i,-2,i
COc1ccc(NC(=O)N(C2CCCCC2)C(C)c2cccnc2)c(OC)c1 (stereo unspecified),.,-3,.,2,.
COc1cccc(N2C(=O)N(c3ccccc3Cl)C3CS(=O)(=O)CC32)c1 (stereo unspecified),i,-5,i,0,i
Cc1[nH]c2ccccc2c(=O)c1CN1CCCCC1,i,11,i,-5,i
O=C1C2CCCN2C(c2ccccc2)N1c1ccc(F)cc1 (stereo unspecified),.,0,.,7,.
O=C(c1ccc(Cn2c(=O)[nH]c3ccccc3c2=O)cc1)N1CCN(c2ccccn2)CC1,.,-6,.,-5,.

# Copied from the entries so far (18 entries):
SMILES,VCAM-1 augmentation,FPRL1 binder,VCAM-1 imaging,FPR binder,VCAM-1 inhibition
CCCN1CCN(C(=O)Cn2ncc3ccccc32)CC1,.,0,.,9,.
CCOC(=O)N1CCN(C(=O)Cc2ccc(-n3c(=O)[nH]c4ccccc4c3=O)cc2)CC1,.,8,.,-2,.
COc1ccc(CC(=O)Nc2ccc(-c3noc(-c4cccc(OC)c4)n3)cc2)cc1,.,-1,.,2,.
COCCNC(=O)C(c1ccc(C)o1)N(Cc1ccc(OC)cc1)C(=O)Cn1nnc2ccccc21 (stereo unspecified),i,-4,i,9,i
COC(=O)c1cccc(Oc2nc3c(c(=O)n(C)c(=O)n3C)n2C(C)C)c1,i,0,i,6,i
COC(=O)CN(c1ccc(OC)cc1)S(=O)(=O)c1c(C)noc1C,.,-4,.,-7,.
CCn1c(COc2cccc3cccnc23)nnc1SCC(=O)O,.,-3,.,-8,.
COc1ccc(-c2cc(C(=O)N3CCOCC3)no2)cc1OC,.,6,.,5,.
CCC(c1nnc(SCC(=O)Nc2ccc(C(=O)Nc3ccccc3OC)cc2)o1)N(C)C (stereo unspecified),i,-2,i,-2,i
COCCn1c(=O)c2c(nc3n2CCN3c2ccc(C)cc2)n(C)c1=O,.,4,.,5,.
CC(C)OCCCNC(=O)c1cc2c(=O)n(C)c3ccccc3c2n1C,.,-4,.,8,.
CC1CCN(C(=O)C(NS(=O)(=O)c2cccc3nsnc23)c2ccccc2)CC1 (stereo unspecified),.,12,.,26,.
O=C(Nc1cnn(Cc2ccc(F)cc2)c1)c1cnccn1,i,0,i,-2,i
COc1ccc(NC(=O)N(C2CCCCC2)C(C)c2cccnc2)c(OC)c1 (stereo unspecified),.,-3,.,2,.
COc1cccc(N2C(=O)N(c3ccccc3Cl)C3CS(=O)(=O)CC32)c1 (stereo unspecified),i,-5,i,0,i
Cc1[nH]c2ccccc2c(=O)c1CN1CCCCC1,i,11,i,-5,i
O=C1C2CCCN2C(c2ccccc2)N1c1ccc(F)cc1 (stereo unspecified),.,0,.,7,.
O=C(c1ccc(Cn2c(=O)[nH]c3ccccc3c2=O)cc1)N1CCN(c2ccccn2)CC1,.,-6,.,-5,.
